# Source: PubChem BioAssay
# TRPML1 blocker: qHTS for Inhibitors of the Human Mucolipin Transient Receptor Potential 1 (TRPML1); Mucolipin-1 (Homo sapiens), Q9GZU1; TRPML1-inducible cells, Ca2+ dye fluorescence, FDSS; stronger effect = lower value; inhibition of EC80 agonist-evoked calcium signal; activity change, negative = inhibition, % (concentration not given with the values); 390,000 compounds, 0.02% hits; AID 624415, 2012; in the data active means activity change below about -50%; inconclusive means about -30% to -50%; inactive means above about -30%;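 further: stimulus is agonist 54-4 at its EC80 concentration; on the % scale 0 is the no-effect control and ±100 the full control effect; the text of the record puts the active cut at -80%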
# Target sequence (Q9GZU1 whole entry, looked up): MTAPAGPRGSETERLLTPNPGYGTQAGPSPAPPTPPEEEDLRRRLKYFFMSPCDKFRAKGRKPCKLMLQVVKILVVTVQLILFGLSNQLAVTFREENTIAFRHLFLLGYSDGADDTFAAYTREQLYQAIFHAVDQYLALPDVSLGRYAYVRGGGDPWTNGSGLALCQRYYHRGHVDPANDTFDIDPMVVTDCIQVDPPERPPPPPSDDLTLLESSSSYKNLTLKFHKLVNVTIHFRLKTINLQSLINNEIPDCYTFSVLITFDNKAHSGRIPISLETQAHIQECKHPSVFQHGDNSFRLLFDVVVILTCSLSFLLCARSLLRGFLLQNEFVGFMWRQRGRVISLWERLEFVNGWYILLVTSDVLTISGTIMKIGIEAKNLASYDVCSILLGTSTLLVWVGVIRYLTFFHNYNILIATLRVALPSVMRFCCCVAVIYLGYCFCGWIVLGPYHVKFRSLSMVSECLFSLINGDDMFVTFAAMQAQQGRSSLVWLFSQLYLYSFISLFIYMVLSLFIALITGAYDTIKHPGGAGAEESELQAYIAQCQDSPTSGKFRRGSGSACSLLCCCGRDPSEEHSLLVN
#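 TRPML1-DL cells, Tet-induced overnight (~16 h, 37 °C) at 1,500 cells/well, were loaded with Ca8 no-wash dye plus quencher for 45-90 min at room temperature. Compounds were pinned during FDSS kinetic reading; agonist 54-4 at EC80 (4 uM final) then added.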
# Menin MLL FP FL: qHTS Assay for Inhibitors Targeting the Menin-MLL Interaction in MLL Related Leukemias: Competition With Fluorescein Labeled MLL-derived Peptide; Fluorescence polarization, fluorescein-MLL peptide displacement from menin; 290,000 tested, under 10 active; FP activity change, % at 61.4 µM; inconclusive = falling polarisation curve, or a change in total fluorescence; inactive = total fluorescence flat and polarisation flat or rising; no compound was filed as active; the % refers to the polarisation; negative = inhibition;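 further: % of control where 0% means no effect; inhibitors lower the polarisation; unlabelled MLL peptide was the positive control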
# Sfp PPTase inh: qHTS Assay for Inhibitors of Bacillus subtilis Sfp phosphopantetheinyl transferase (PPTase) | Biochemical Sfp PPTase activity, qHTS | Potency, µM, for inactives: max response, negative = inhibition, most hits filed as inhibitors | 4'-phosphopantetheinyl transferase ffp (Bacillus subtilis), Q9F4F7 | AID 1490, 2009 | 310,000 compounds, 3.5% hits; active means well fitted inhibition curve with a large enough effect; inconclusive means small, poorly fitted or top-dose-only effect, or another doubt; inactive means no such curve, though single readings can be large or run the other way;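 further: the enzyme is Sfp with the accession as filed and its product quenches rhodamine fluorescence; potency means the concentration at half of the fitted maximal effect; 0% = enzyme reaction without inhibitor and -100% = no enzyme wells; top concentration of the series not given in the record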
#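 Compounds were incubated with enzyme (final 15 nM) for 15 min at room temperature before substrate addition started the reaction. Fluorescence at 525 nm excitation, 598 nm emission was recorded immediately and after 30 minutes.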
# TRPML1 agonist: qHTS for Agonists of the Human Mucolipin Transient Receptor Potential 1 (TRPML1) | Mucolipin-1 (Homo sapiens), Q9GZU1 | TRPML1-expressing cells, Ca2+ dye fluorescence, FDSS; host cell line not named in the record; reference of the full effect not given here | activation, % (no concentration beside the values) | 410,000 compounds, 0.12% hits | AID 624414, 2012; in the data active = activation above about 50%; inconclusive = about 30% to 50%; inactive = below about 30%; further: 0% is about no effect; the text of the record puts the active cut at 80%
#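 Agonist activity was taken from a 110 s kinetic Ca2+ dye read on the FDSS after pinning compounds onto TRPML1-DL cells. The cells were seeded at 1,500/well with Tet inducer, incubated about 16 h, then dye-loaded at room temperature.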
# ClpP mod: qHTS Assay for Activators of ClpP; purified B. subtilis ClpP, FRET peptide cleavage, 20 min; Potency, µM (top dose mostly 57.5 µM), for inactives: top-dose activity change, negative = active; 340,000 compounds, 1.9% hits; AID 651965, 2013; active = well fitted falling curve with a large enough effect; inconclusive = small, poorly fitted or top-dose-only effect; inactive = no such curve, though single readings can be large or run the other way; further: potency means the concentration at half of the fitted maximal effect; the source files actives as falling curves though it sought activators and does not explain the sign; nearly all actives have a fitted effect of over 65% in size; many hits overshoot -100%
# Target sequence (P80244 whole entry, looked up): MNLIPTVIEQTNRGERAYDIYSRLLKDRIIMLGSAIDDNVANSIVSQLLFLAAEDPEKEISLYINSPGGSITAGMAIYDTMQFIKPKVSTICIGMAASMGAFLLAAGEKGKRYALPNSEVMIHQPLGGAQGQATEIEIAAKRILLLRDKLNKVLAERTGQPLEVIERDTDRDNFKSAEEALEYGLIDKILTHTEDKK
#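 Purified B. subtilis ClpP, 10 microg/mL final in Tris/HCl pH8 with KCl, BSA, glycerol and Tween-20, cleaved an Abz/nitrotyrosine-quenched decapeptide. Fluorescence (ex 320, em 430) was read at 0 and 20 min at room temperature. Delta was normalized to 5.8 microM ADEP and DMSO/no-enzyme controls.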
# TRPV1 PAM: HTS Assay for Compounds that Act as Potentiators of the Vanilloid Receptor 1. potentiation, % at 8.33 µM. 320,000 compounds, 0.02% hits. AID 540277, 2011. TRPV1-expressing cells, Fluo-8 calcium influx, capsaicin EC20 potentiation; host cell line not named in the record; control for the full effect not named in the record; active means potentiation above 80%; inconclusive means 30% to 80%; inactive means below 30%; further: 0% is about no effect
#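 Fluo-8 calcium influx in TRPV1-expressing cells, kinetic read (ex 480/em 520 nm). Compound added and read 3 min for agonist activity, followed by capsaicin at EC20 final and 2 min further read for enhancement.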
# PINK1 modulator: A Quantitative High throughput Screen to Identify Chemical Modulators of PINK1 Expression; PINK1 immunofluorescence, high-content cytometry, 24 h; Potency, µM (highest dose often 76.6 µM), inactives show top-dose activation (PINK1 increase), actives largely listed as activators; 410,000 compounds, 0.2% hits; AID 624263, 2012; active = well fitted activation curve with a large enough effect; inconclusive = small, poorly fitted or top-dose-only effect; inactive = flat fitted curve, though single readings scatter; cell line not stated here;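 further: potency means the concentration at half of the fitted maximal effect; % of control where 0% means no effect; nearly all actives have a fitted effect of over 65% in size; a mitochondrial uncoupler was the plate control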
#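 Measures PINK1 amount and localization on or inside mitochondria by immunofluorescence. Stable cells get compounds at 5 concentrations for 24 hours before fixation and staining; CCCP controls included.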
# Starred values were filed as active, the others as inactive; ? = inconclusive; . = not tested or not shown; [ ] = another dose, or the depositor's remark.
SMILES,TRPML1 blocker,Menin MLL FP FL,Sfp PPTase inh,TRPML1 agonist,ClpP mod,TRPV1 PAM,PINK1 modulator
Cc1ccc(N(C(=O)c2ccco2)C(C(=O)NC2CCCC2)c2cccnc2)cc1C (configuration not stated),4,.,18%,0.3,0.4%,-19,2.2%
COc1ccc(CNC(=O)COC(=O)C(CCSC)N2C(=O)c3ccccc3C2=O)cc1 (configuration not stated),0,.,.,1.1,-4.1%,.,0.0%
COc1cccc(N2CCN(C(=O)c3ccc(NC(=O)c4nsc5ccccc45)cc3)CC2)c1,14,.,.,1.2,-1.5%,.,-0.4%
CCOC(=O)c1c(C)[nH]c(C)c1S(=O)(=O)NCC(=O)Nc1cccc(Cl)c1,13,.,.,-1.2,-0.4%,.,1.1%
COc1ccccc1NC(=O)CN1C(=O)c2ccccc2Sc2ccc(C(=O)N3CCCC3)cc21,-21,.,.,2.6,-0.1%,.,0.3%
O=C(c1[nH]c(C(F)(F)F)nc1-c1ccccc1)N1CCCN(Cc2ccc(F)cc2)CC1,.,.,.,-0.7,-1.4%,.,-0.5%
COC(=O)c1ccc(-c2nc3cc(NC(C)=O)ccc3o2)cc1,12,.,.,0.1,0.6%,.,0.5%
O=C(NCc1cccc(C(F)(F)F)c1)c1csc([C@@H]2C[C@H](O)[C@@H](CO)O2)n1,.,.,.,-0.2,0.2%,.,2.6%
COc1ccccc1OCC(=O)Nc1ccc(NC(=O)COc2ccccc2OC)cc1,41,.,-11%,3.6,-0.6%,17,5.5%
c1ccc(C2CC(c3cccs3)n3nnnc3N2)cc1 (configuration not stated),-8,6.0,10%,-0.1,2.3%,0,1.6%
CCOC(=O)c1ccccc1NC(=O)CSc1nnc(COc2ccccc2)n1CC,-13,3.6,0%,2.0,-4.1%,8,.
CCN1CCN(S(=O)(=O)c2cc3c(cc2Cl)NC(=O)CO3)CC1,-2,-1.0,11%,0.2,0.5%,-6,1.0%
Cc1cc2nc(-c3ccc(SCc4ccc(C(=O)O)cc4)nc3)[nH]c2cc1C,20,4.7,22µM*,-0.5,.,19,5.7%
CCOC(=O)CNC(=O)Nc1cc(C(=O)NCc2cccc(F)c2)ccc1N1CCCC1,-1,.,.,-0.7,-20%,.,-0.7%
Cc1ccc(COc2ccc(/C=N/NC(=O)c3ccc(CN4CCOCC4)cc3)cc2)cc1,12,1.9,20%,1.9,.,3,0.6%

# A few values from the results shown.
# TRPML1 agonist with COc1ccc(CNC(=O)COC(=O)C(CCSC)N2C(=O)c3ccccc3C2=O)cc1 (configuration not stated) reads 1.1
# Sfp PPTase inh with CCOC(=O)c1ccccc1NC(=O)CSc1nnc(COc2ccccc2)n1CC reads 0%

# (further entries)
SMILES,TRPML1 blocker,Menin MLL FP FL,Sfp PPTase inh,TRPML1 agonist,ClpP mod,TRPV1 PAM,PINK1 modulator
CCOC(=O)c1noc2ncnc(Nc3ccc(C)c(F)c3)c12,-7,.,.,-0.8,0.2%,.,0.1%
Cn1cnnc1SCc1nc(N)nc(Nc2ccccc2)n1,-18,0.4,4%,1.8,-2.3%,3,-3.3%
CN=C1S/C(=C\c2ccc(N3CCCC3)c(F)c2)C(=O)N1C,1,?,71µM*,2.2,.,18,11%
CC(=O)Cc1nsc(NC(=O)c2ccc(COc3cccc(C)c3)o2)n1,-11,6.1,6%,1.6,-2.8%,-3,0.0%
CCC(C)Nc1nc2c(c(=O)[nH]c(=O)n2C)n1Cc1ccc(F)cc1 (configuration not stated),9,.,.,-0.7,-1.4%,.,-0.1%
Cc1ccc(-c2nc(CS(=O)CC(=O)NCCN3CCCC3)c(C)o2)cc1 (configuration not stated),6,0.2,6%,-0.3,-18%,-13,2.1%
Cc1ccc(NC(=O)CSc2nccn2C2CCCC2)cc1,22,.,.,1.7,0.1%,.,-1.4%
NS(=O)(=O)c1ccc(NC(=O)CN2CCCc3ccccc32)cc1,15,?,12%,8.6,.,0,0.4%
O=c1c(F)cn(C2CCCO2)c(=O)n1Cc1ccccc1Cl (configuration not stated),13,3.9,15%,0.2,-0.8%,8,0.3%[38.3 µM]
CCOC(=O)C1CCCN(Cc2cn[nH]c2-c2ccc(F)cc2F)C1 (configuration not stated),-11,3.8,0%,0.4,.,-7,-1.7%
c1ccc(-c2nn3c(C4CCCCC4)nnc3s2)cc1,3,4.7,-15%,2.3,-2.2%,.,-2.9%
Cc1ccc(-n2nc3c(=O)n(CC(=O)NCCc4ccc(Cl)cc4)nc(C)c3c2C)cc1,-10,.,-30%,1.2,1.7%,6,0.2%
CC(C)(C)Cc1c(-c2ccc(C#N)cc2)nc2ccc(Cl)cn12,14,.,.,0.7,3.6%,.,3.0%
O=C(NCc1ccccc1)c1ccc(CS(=O)(=O)c2ccccc2)o1,-2,0.6,8%,2.3,2.0%,-17,-4.6%
COc1cccc2sc(=NC(=O)CS(=O)(=O)c3ccccc3)n(C)c12,12,.,.,0.1,-2.9%,.,0.4%
O=C(Nc1ccccc1N1CCCC1)C1CCN(S(=O)(=O)c2cccc(C(F)(F)F)c2)CC1,3,.,.,0.0,.,-17,0.3%
CCOC(=O)c1ccc(N2CCN(c3ccccc3F)CC2)c(NC(=O)Nc2ccccc2)c1,-16,1.6,-16%,-0.4,1.3%,-2,-1.5%
COc1ccc(NC(=O)c2c(NC(=O)CNCC(C)C)sc3c2CCC3)c(OC)c1,77,-1.9,?,2.2,.,15,-0.4%
COc1ccc(CCNc2ncnc3c2c(C)c(C)n3CCCN(C)C)cc1OC,4,-1.5,5%,0.0,.,-6,0.9%
COc1ccc(CCNc2oc(COc3cccc(C)c3)nc2C#N)cc1OC,56,.,.,4.1,-4.0%,.,-0.7%
Cc1cc(NC(=O)CC2CCCC2)n(-c2nc3ccccc3[nH]2)n1,2,-1.0,12%,-1.0,19%,-10,2.4%
Cc1ccc(NC(=O)c2noc3c2CC(C(C)(C)C)CC3)cc1 (configuration not stated),18,1.7,16%,-0.1,-7.4%,-8,4.9%
O=C(N/N=C/c1ccncc1)c1nc2ccccc2c(=O)[nH]1,15,0.2,?,-0.1,-0.1%,-6,1.4%
O=C1C=C(Nc2ccc(F)cc2)c2ccccc2C1=O,-6,.,.,3.9,1.7%,-9,-0.3%
CCN(CC)C(=O)Cn1cc(C(=O)C(=O)N2CCc3ccccc32)c2ccccc21,3,-11,11%,-0.5,.,-1,0.7%
COc1ccc(OCC(O)CNCCNc2nccc(C(F)(F)F)n2)cc1 (configuration not stated),-12,0.9,1%,-0.7,-1.2%,-2,-0.7%
O=C(CC1SCCNC1=O)NCc1ccccc1 (configuration not stated),13,.,.,-0.6,-0.1%,.,2.5%
CC(C)Cc1nnc(NC(=O)c2ccc3c(c2)NC(=O)C(C)S3)s1 (configuration not stated),-6,.,.,0.9,.,4,4.3%
N#Cc1c(C(F)(F)F)cc(-c2cccs2)nc1SCc1cccnc1,21,0.1,-27%,3.5,8.9µM*,20,1.7%[38.3 µM]
Cc1ccc(CNC(=O)Cc2coc3cc(C)cc(C)c23)cc1,1,.,.,2.0,-1.9%,.,0.0%
O=C(c1ccco1)N1CCN(C2CN(Cc3ccc(F)cc3)S(=O)(=O)C2)CC1 (configuration not stated),.,.,.,-0.2,-1.5%,.,0.2%
Cc1cccc(C)c1NC(=O)CCS(=O)(=O)c1ccc(Br)cc1,9,-8.7,13%,0.5,.,-12,12%
Cc1ccc2nc(-c3cccc(Br)c3)c(Cc3ccccn3)n2c1,3,.,.,0.0,4.6%,.,5.2%
CC(C)CC(NS(=O)(=O)c1ccc2c(c1)oc(=O)n2C)C(=O)NC1CCCc2ccccc21 (configuration not stated),-10,-9.6,8%,-0.8,0.0%,?,4.9%
COc1ccc2[nH]c(=O)c(CN(Cc3cccs3)Cc3nnnn3C(C)(C)C)cc2c1,-11,0.5,-10%,0.0,32µM*,-6,3.0%[38.3 µM]
O=C(COc1ccc([N+](=O)[O-])cc1)Nc1cccnc1,-5,-3.1,18%,-0.6,.,20,0.7%
O=c1c2ccccc2nnn1Cc1ccc(F)cc1,2,-2.3,-2%,-1.1,-0.7%,-6,1.7%
CCOC(=O)c1cnc2ccc(OC)cc2c1NCCc1ccccc1,55,.,.,2.9,4.2%,.,-1.3%
COC(=O)c1cc(COc2ccc3oc(C)c(C(=O)OC)c3c2)c(C)o1,38,3.7,-3%,5.8,-18%,15,4.0%[38.3 µM]
CCc1ccc(-c2nnn(CCC(=O)OC)n2)cc1,4,0.6,15%,-0.9,0.4%,-3,-3.1%
CS(=O)(=O)N1CCN(C(=O)Cc2cccs2)CC1,-4,1.9,7%,-0.5,1.0%,-24,-3.1%[38.3 µM]
NS(=O)(=O)c1ccc(N/N=C/c2ccc(O)cc2O)c([N+](=O)[O-])c1,.,-0.5,8%,.,-0.5%,4,2.0%
COCCNC(=O)/C(C#N)=C/c1cccs1,-17,-0.8,0%,1.0,.,4,0.6%
CCN(CC(=O)N1CCC(C)CC1)S(=O)(=O)c1ccc(C)cc1,-13,.,9%,0.7,1.9%,-24,1.5%
Cc1cccc(C)c1NC(=O)C(NC=O)c1ccccc1Cl (configuration not stated),-21,-0.1,12%,-0.5,-0.5%,0,0.4%
CSc1ncccc1C(=O)NCC(c1cccs1)N1CCOCC1 (configuration not stated),4,.,.,-0.5,1.6%,16,2.4%
N#Cc1nnn(-c2cc(Cl)cc(Cl)c2)c1N,2,-0.9,3%,2.2,.,-2,-0.2%
O=C(N1CCCC1)n1c(Cc2ccccc2)nc2ccccc21,-13,-0.3,7%,3.9,-0.4%,0,-4.5%
Cc1[nH]n(-c2ccc(Cl)cc2)c(=O)c1/C=N/n1c(C)nc2ccccc2c1=O,-12,2.3,13%,0.1,-7.0%,-4,-0.2%
Cc1cccc(C)c1NC(=O)c1c(O)c2ccccc2[nH]c1=O,13,-4.2,5%,-0.5,-1.5%,-10,2.0%
